Compound activity (PubChem)
KAT2A inh = blocks human GCN5L2 histone acetyltransferase; 390,000 compounds, 0.21% hits; Q92830; AID 504327; GCN5L2 HAT assay, ThioGlo1 CoA-SH fluorescence; Potency, µM (series often up to 58.9 µM), inactives show at the top dose activity change, negative = inhibition, usual class: inhibitors; active = well fitted inhibition curve with a large enough effect; inconclusive = small, poorly fitted or top-dose-only effect, or another doubt; inactive = no such curve, though single readings can be large or run the other way
Target sequence (Q92830 whole entry, looked up): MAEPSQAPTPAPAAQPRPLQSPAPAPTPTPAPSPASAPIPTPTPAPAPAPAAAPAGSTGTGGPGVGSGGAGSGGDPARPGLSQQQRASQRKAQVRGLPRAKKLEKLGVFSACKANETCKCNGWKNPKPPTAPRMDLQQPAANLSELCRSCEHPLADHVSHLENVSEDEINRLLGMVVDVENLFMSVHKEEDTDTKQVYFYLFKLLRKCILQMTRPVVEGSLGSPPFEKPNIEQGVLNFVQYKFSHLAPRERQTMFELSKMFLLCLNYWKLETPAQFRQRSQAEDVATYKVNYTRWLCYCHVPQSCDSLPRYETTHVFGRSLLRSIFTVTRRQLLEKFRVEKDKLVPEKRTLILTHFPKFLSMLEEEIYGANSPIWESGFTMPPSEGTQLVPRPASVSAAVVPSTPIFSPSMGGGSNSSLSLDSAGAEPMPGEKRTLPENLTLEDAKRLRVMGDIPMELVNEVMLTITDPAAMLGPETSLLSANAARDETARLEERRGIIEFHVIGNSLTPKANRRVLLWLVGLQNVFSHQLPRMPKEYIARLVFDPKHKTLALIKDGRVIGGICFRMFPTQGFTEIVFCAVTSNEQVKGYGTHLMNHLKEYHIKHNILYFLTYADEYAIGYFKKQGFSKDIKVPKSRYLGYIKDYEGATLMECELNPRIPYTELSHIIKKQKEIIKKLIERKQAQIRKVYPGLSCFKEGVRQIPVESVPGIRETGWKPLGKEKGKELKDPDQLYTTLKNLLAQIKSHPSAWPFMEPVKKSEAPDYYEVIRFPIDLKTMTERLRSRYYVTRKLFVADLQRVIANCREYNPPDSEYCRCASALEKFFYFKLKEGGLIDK
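GCN5L2 (20nM final) in 50mM HEPES, 0.1mM EDTA pH 7.5, 0.01% Tween-20 was preincubated 15 min at room temperature with compound, then given ThioGlo1 (50uM), H3(1-25) peptide (75uM) and acetyl-CoA (70uM); CoA-thiol fluorescence (Ex340/Em540) was read at 0 and 20 min.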
* hit, by the source's call; ? = inconclusive; [ ] = remark or other dose. % is set by controls: 0 for no effect and ±100 for the full control effect; potency is the fitted concentration of half-maximal effect. Some of the compounds tested, and most or all hits are left out here.

SMILES	KAT2A inh
COc1ccc(C2/C(=C(/O)c3ccccc3)C(=O)C(=O)N2c2ccccn2)c(OC)c1 (configuration not stated)	0.9%
O=C(COc1ccccc1C(=O)c1cnn(-c2ccccc2)c1)Nc1ccc2ccccc2c1	-7.8%
COC(=O)c1ccc(CSc2nnc(SCc3ccc(C(=O)OC)o3)s2)o1	-1.8%
CCCOc1cccc(-c2cc(-c3n[nH]c(=S)n3CC)c3ccccc3n2)c1	?
COc1ccc(CC(=O)NCc2ccc3c(c2)CCN3C(=O)c2ccc(Cl)cc2)cc1OC	-8.8%
CSc1ccccc1NC(=O)c1ccc(N2CC3CC(C2)c2cccc(=O)n2C3)c(NC(=O)c2cccnc2)c1 (configuration not stated)	-3.0%
COc1ccc(Cc2nnc(SCC(=O)Nc3ccccc3C)n(N)c2=O)cc1	-2.5%
COc1ccccc1NC(=S)NC(NC(=O)c1ccco1)C(Cl)(Cl)Cl (configuration not stated)	55.8%[activator]
CCOc1ccc(C(=O)Oc2cc(C)[nH]c(=O)c2[N+](=O)[O-])cc1OCC	-0.9%
Cc1ccc(C2C(C(=O)c3cc4ccccc4o3)=C(O)C(=O)N2CCN2CCOCC2)cc1 (configuration not stated)	-20.5%
COc1ccc(C(=O)Nc2c(N)nc(SCC(=O)c3ccccc3)[nH]c2=O)cc1	-3.7%
COc1cc(NC(=O)CC2C(=O)N(c3ccc(Cl)cc3)C(=O)N2Cc2cccs2)cc(OC)c1 (configuration not stated)	0.7%
O=C(Nc1ccc(Br)cc1)c1ccc(N2C(=O)C3CC=C(Cl)CC3C2=O)cc1 (configuration not stated)	-5.6%
CN(C(=O)COC(=O)C12CC3CC(CC(C3)C1)C2)c1c(N)n(Cc2ccccc2)c(=O)[nH]c1=O	-5.0%
CC(c1ccccc1)N1C(=O)NC(NC(=O)C(C)(C)C)(C(F)(F)F)C1=O (configuration not stated)	-2.2%
CN(C)c1ccc(C(=O)Nc2cccc(S(=O)(=O)NC3=NCCCCC3)c2)cc1	-5.5%
COc1ccccc1NC(=O)CN1CCN(c2ccccc2)CC1	-5.3%
Nc1ccccc1C(=O)NCc1ccco1	-9.3%
COc1ccc(OC)c(Nc2nc3ccccc3nc2-n2nc(C)cc2C)c1	-2.4%
CCOc1ccc(Br)cc1S(=O)(=O)N1CC(C)OC(C)C1 (configuration not stated)	-1.1%
CCOCC(=O)Nc1ccc([N+](=O)[O-])cc1Cl	0.9%
CC(C)(C)NC(=O)c1ccc(Cn2cc(C(F)(F)F)ccc2=O)cc1	-3.0%
CCOC(=O)c1c(NC(=O)c2ccc(S(=O)(=O)N(CC)CC)cc2)sc2c1CCCCC2	0.1%
S=c1nc(-c2sccc2OCc2ccc(Cl)cc2Cl)[nH][nH]1	-12.2%
Nc1nc(SCC(=O)Nc2ccccc2Sc2ccccc2)n[nH]1	0.7%
CCOc1ccc(Cn2c(C)nc([N+](=O)[O-])c2SCC(O)CCl)cc1[N+](=O)[O-] (configuration not stated)	-2.9%
Cc1cccc(C(=O)OCC(=O)c2ccc3c(c2)OCCO3)c1O	-6.1%
CN(CC(=O)Nc1cccc(F)c1)CC(=O)Nc1cc(S(=O)(=O)N2CCOCC2)ccc1Cl	1.6%
O=C(NCC1CCCCC1)c1cccnc1Cl	1.4%
Cc1cc(C)c(N)c(C(=O)O)c1	?
O=C(NCc1ccc2c(c1)OCO2)c1ccc(COc2cccc(Cl)c2)o1	-1.2%[0.501 µM]
C=CCN(c1ccc(C(N)=O)cc1)S(C)(=O)=O	-4.9%
O=S(=O)(c1ccccc1F)N1CCN(CCOc2ccccc2)CC1	-6.0%
C[C@@]12C(=O)N(Cc3ccc(Cl)cc3)CC(=O)N1[C@H]1c3ccccc3OC[C@@H]1[C@@H]2c1ccccc1	-5.0%
Cc1ncsc1CCC(=O)N1CCCC(C(=O)c2ccc3c(c2)OCO3)C1 (configuration not stated)	-8.9%
Cc1cc(-c2ccc(S(=O)(=O)NCc3ccccc3Cl)s2)on1	-12.3%
CCC(=O)N1CCCc2cc(S(=O)(=O)N3CCN(c4ccccc4F)CC3)ccc21	-7.9%
O=C(Nc1nc(-c2nc3ccccc3s2)cs1)c1ccc(S(=O)(=O)N2CCOCC2)cc1	-15.4%
Cc1ccnc(NS(=O)(=O)c2ccc(NS(=O)(=O)c3cc(Cl)ccc3Cl)cc2)n1	-7.4%
CCOCCn1ccc2c(OCC(=O)Nc3cc(C(F)(F)F)ccc3Cl)cccc2c1=O	-4.8%

Quoted at random: two records from the list
SMILES	KAT2A inh
O=C(Nc1nc(-c2nc3ccccc3s2)cs1)c1ccc(S(=O)(=O)N2CCOCC2)cc1	-15.4%
Cc1ccnc(NS(=O)(=O)c2ccc(NS(=O)(=O)c3cc(Cl)ccc3Cl)cc2)n1	-7.4%

The listing picks up, starting two compounds before the break.
SMILES	KAT2A inh
Cc1ccnc(NS(=O)(=O)c2ccc(NS(=O)(=O)c3cc(Cl)ccc3Cl)cc2)n1	-7.4%
CCOCCn1ccc2c(OCC(=O)Nc3cc(C(F)(F)F)ccc3Cl)cccc2c1=O	-4.8%
COc1cc(C(=O)Nc2ccc(S(=O)(=O)Nc3cc(C)on3)cc2)cc(OC)c1OC	-2.6%
Cc1cc(SCc2cccc(C(F)(F)F)c2)nc(=O)[nH]1	-3.8%
CCn1c(/C=C/c2c(C)[nH]c3ccccc23)nc2ccccc2c1=O	-13.5%
COc1ccc([C@H]2CC(=O)C=C(c3ccc(C(=O)O)cc3)C2)cc1OC	-4.1%
CCOC(=O)c1ccc2c(c1)nc(COc1ccc3ccccc3c1)n2CC	-3.7%
CCOC(=O)C(C)n1cnc2c1c(=O)[nH]c(=O)n2C (configuration not stated)	-4.9%
O=C(NC1=NCCS1)c1ccc([N+](=O)[O-])cc1Cl	-15.1%
Cc1ccc(N(CC(=O)N/N=C/c2cc(C)n(-c3ccccc3C)c2C)S(C)(=O)=O)cc1	-8.0%
CCc1nnc(SCCSc2nnc(CC)n2N)n1N	-25.9%
COc1cc(NC(=O)COC(=O)CO/N=C(\C)c2ccc3c(c2)OCO3)cc(OC)c1OC	-1.7%
CCOC(=O)C1CCCN(C(=O)c2cc(-c3ccc(C)cc3)nc3ccccc23)C1 (configuration not stated)	-3.8%
COc1ccc(-n2c(SCC(=O)N3CCOCC3)nnc2C(C)N2CCCCC2)cc1 (configuration not stated)	-3.9%
COCC(=O)Nc1ncc(S(=O)(=O)c2ccc([N+](=O)[O-])cc2)s1	-5.8%
C/C=C/C1=CC(=O)C[C@H](c2ccc3c(c2)OCO3)C1	-0.4%
Cc1ccc(OCC(=O)OC(C)C(=O)NC2CCCCC2C)cc1C (configuration not stated)	-4.0%
O=C(CC(Cc1ccccc1)C(=O)O)NCCc1ccc2c(c1)OCO2 (configuration not stated)	1.0%
C=CCn1nc2ccccc2c1OC	-17.5%
CC(C)N1CCN(Cc2ccc(C#CC(C)(C)O)cc2)CC1CCO (configuration not stated)	24.4%
COc1ccc(NC(=O)Nc2ccc3c(c2)C(=O)N([C@H](C)CO)C[C@H](C)[C@@H](CN(C)C(=O)Nc2ccc(C(F)(F)F)cc2)O3)cc1	-7.7%
Cc1cc(NC(=O)c2cnn3cccnc23)no1	-11.0%
Cc1cccc(OCCC(=O)NCC(=O)Nc2c(C)cccc2C)c1	37.2%[activator]
CCOCCCNc1ncnc2c1cnn2-c1ccc(C)c(C)c1	-3.9%
CCOc1ccc(NS(=O)(=O)c2ccc(C(=O)N3CC(C)OC(C)C3)cc2)cc1 (configuration not stated)	-3.7%
CCn1nc(C(=O)O)c(=O)c2cc3c(cc21)OCO3	-10.6%
COc1ccc(CC(=O)OCC(=O)NCC2CCCO2)cc1OC (configuration not stated)	1.8%
CCN1CCN(C(=O)c2ccc3c(c2)N(Cc2c(F)cccc2Cl)C(=O)c2ccccc2S3)CC1	-3.8%
Cc1cc(C)nc(-n2nc(C)c(Sc3ccc(F)cc3)c2N)n1	-0.1%
COc1cccc(CN2CCN(S(=O)(=O)c3ccc(NC(C)=O)cc3)CC2)c1OC	-0.1%
O=C(Cn1ncc2c3ccccc3n(Cc3ccccc3F)c2c1=O)N1CCCCCC1	0.2%
COc1ccccc1N1CCN(C(=O)CSc2ccccc2)CC1	0.0%
CC1CCC2(CC1)NC(=O)N(NC(=O)CCl)C2=O (configuration not stated)	-11.1%
O=C(/C=C\c1ccccc1[N+](=O)[O-])Nc1ccccc1	-6.0%
CCC(CC)C(=O)OCC(=O)Nc1cccc(S(=O)(=O)N(C)c2ccccc2)c1	-4.5%
O=C(Nc1cccc(F)c1)Nc1ccnn1C1CCN(C(=O)CCN2CCCO2)CC1	-9.7%
CCc1nn2c(=O)cc(COC(=O)c3ccc4c(c3)OCO4)nc2s1	3.0%
CCC(C)(C)NC(=O)c1ccc(S(=O)(=O)N2CCCCCC2)cc1	-2.2%
Clc1ccccc1Cn1nnc2c(NCCN3CCOCC3)ncnc21	-21.5%
Cc1cc(=O)oc2cc(OC(C)C(=O)Nc3ccc(C(N)=O)cc3)ccc12 (configuration not stated)	1.1%
Cc1ccc(C)c(C(=O)CC2(O)C(=O)Nc3ccccc32)c1 (configuration not stated)	-8.9%
CS(=O)(=O)N(CC(=O)N1CCCC1)c1ccc(OCc2ccccc2)cc1	1.2%
Brc1ccc(Oc2nsnc2N2CCOCC2)cc1	-5.8%
O=C(NC(=S)Nc1ccccc1)c1cccs1	-5.9%
COc1ccc(CNC(=O)[C@H](Cc2ccccc2)NC(=O)C2CCNCC2)cc1	2.6%
COc1ccc(-c2nc3c(c(SCC(=O)N4CCOCC4)n2)COC(C)(C)C3)cc1	-2.8%
Cc1c(C)n(CC(O)CNCCO)c2ccccc12 (configuration not stated)	-1.8%
CCN(CC)CCOC(=O)[C@@H](Cc1cccc2ccccc12)C[C@@H]1CCCO1	-14.1%[21.4 µM]
Cc1ccc(C(=O)Nc2ccc3[nH]c(=O)[nH]c3c2)c(C)c1	-3.0%
CCC(NC(=O)c1ccccc1NC(=O)c1ccco1)C(=O)NNC(=O)c1ccncc1 (configuration not stated)	-10.8%
CC(=O)c1ccc(NC(=O)c2cc3c([nH]c2=O)CC(c2ccccc2)CC3=O)cc1 (configuration not stated)	-10.5%
C/C(N)=C(/C#N)C(=O)CSc1ccccc1F	-22.5%

(list continues)
SMILES	KAT2A inh
CC(C)=CCC(C)(C)CNC(=O)NC1CCCCC1	-1.5%
CC(C)Oc1cccc(C(=O)Nc2ccc(NC(=O)c3ccco3)cc2)c1	-1.5%
CC(=O)c1cccc(NC(=O)CN2CCc3cc4c(cc3C2C)OCCCO4)c1 (configuration not stated)	0.8%
COc1ccc(C)cc1NC(=O)C(Sc1nnc(Nc2ccccc2F)s1)c1ccccc1 (configuration not stated)	-17.9%
C/C(=N/NC(=O)c1cccc(N2CCCC2=O)c1)c1ccncc1	-16.1%
COc1ccc(CCNC(=O)c2oc3ccc(OC)cc3c2C)cc1	?
COc1cccc(C(=O)Nc2nc3ccc(S(C)(=O)=O)cc3s2)c1	-1.7%
O=C(CSc1ccc(Br)cc1)NCC(c1cccs1)N1CCOCC1 (configuration not stated)	3.8%
C=CCn1c(SCc2c(Cl)cccc2Cl)nnc1-c1cccnc1	-5.1%
COC(=O)C1=C(C)N=C2SCCC(=O)N2C1c1cc(Br)ccc1OC (configuration not stated)	1.6%

Sorted by value in KAT2A inh (descending): 5 from the list above.
structure,KAT2A inh
COC(=O)C1=C(C)N=C2SCCC(=O)N2C1c1cc(Br)ccc1OC (configuration not stated),1.6%
CC(C)=CCC(C)(C)CNC(=O)NC1CCCCC1,-1.5%
COc1cccc(C(=O)Nc2nc3ccc(S(C)(=O)=O)cc3s2)c1,-1.7%
C/C(=N/NC(=O)c1cccc(N2CCCC2=O)c1)c1ccncc1,-16.1%
COc1ccc(C)cc1NC(=O)C(Sc1nnc(Nc2ccccc2F)s1)c1ccccc1 (configuration not stated),-17.9%

(list continues)
SMILES	KAT2A inh
COc1ccc([C@H]2CC(=O)C=C(c3ccc(OC)cc3OC)C2)cc1	-11.0%
COc1ccc(CCNC(=O)COc2ccc(S(=O)(=O)NC3CCCCC3)cc2Cl)cc1	-3.5%
Cc1ccc(-c2noc(CCC(=O)Nc3ccccc3C)n2)cc1	1.0%
COC(=O)c1ccccc1Nc1ccccc1	1.8%
O=C(CN1C(=O)NC2(CCCC2)C1=O)Nc1ccc(F)cc1	-2.9%
CCOc1ccc(S(=O)(=O)N2CCN(C(=O)c3ccncc3)CC2)cc1	2.3%
Cc1ccc(NC(=O)CN(C)C(=O)CCOc2cccc(C)c2)cc1	-2.0%
CCN1CCN(C(=O)c2ccc(COc3ccc(Cl)cc3)o2)CC1	2.3%
CCCn1nc(C(=O)NNC(=O)CCCOc2ccc(OC)cc2)c2ccccc2c1=O	-4.6%
CN(CC(=O)Nc1ccc(Cl)cc1)C(=O)C1CCCC1	-0.4%
CC(=O)N1CCN=C1SCc1ccc(Br)cc1	-2.8%
Cc1ccc(-c2nn(-c3ccccc3)cc2C2CC(c3cccs3)=NN2C(=O)CCC(=O)O)cc1 (configuration not stated)	-15.1%
O=S1(=O)C=C(SCc2ccc(F)cc2)Nc2ccccc21	-17.8%
CC(=O)NCCNc1nc(-c2ccccc2C(F)(F)F)nc2ccccc12	-12.4%
CC(C)OCCCn1c(=O)c2ccccc2n2c(-c3ccc(F)cc3)nnc12	-0.3%
O=c1ccc2cc(S(=O)(=O)N3CCN(c4ccccc4)CC3)ccc2o1	2.8%
C/C(=N\OC(=O)c1ccc(F)cc1)c1sc(-c2ccccc2)nc1C	-2.6%
O=C(CNC(=O)C(c1ccccc1)c1ccccc1)N/N=C\c1ccc2c(c1)OCO2	-3.0%
Cc1ccc(C(=O)NNC2=Nc3cccc4cccc2c34)cc1	0.4%
COc1ccc(C(=O)Oc2cccc3cccnc23)cc1[N+](=O)[O-]	26.4%
Cc1nc(SCC(=O)N2CCCCCC2)[nH]c(=O)c1C	-2.5%
N#C/C(=C\c1cn(CC(=O)O)c2ccccc12)C(=O)NCc1ccccc1	-11.8%
Cn1c(NC(=O)c2ccco2)c(-c2ccccc2Cl)c(=O)c2ccccc21	-3.4%
